Env fusion inh: HIV envelope-mediated fusion inhibition. HeLa-JRFL Env/CEM21 cell fusion, luciferase. inhibition, % at 12.3 µM. 360,000 compounds, 1.1% hits. AID 651610;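 active = mean replicate inhibition score of at least 50 and every replicate individually at or above 50; inconclusive = only one of the two criteria met; inactive = mean below 50 and not all replicates reaching 50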;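 also: 0% = plate neutral controls and 100% = maraviroc near 300 nM; one replicate is shown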
CSC inhib: blocks cancer stem cells | cancer stem cell-like cells viability, luminescence | inhibition, % at 7.5 µM | 300,000 compounds, 1.1% hits;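 active = mean at 75% or more and at least half the replicates too; inconclusive = mean and replicates disagree; tested in HMLE shEcad cells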;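 also: 0% = median of negative and 100% = median of positive control wells; the first replicate is given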
MT1-MMP act inh: blocks activation of human MT1-MMP; P50281; HT1080 RFP-PRO-GFP cells, GFP/RFP ratio fluorescence, overnight; percent of plate control window, DMSO zero; GFP/RFP ratio change, % at 20 µM; 360,000 compounds, 0.061% hits; AID 651647;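 active = GFP/RFP ratio change of at least 30% with cell ATP level not reduced by more than half and red fluorescence within 50% of control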; also: strong numbers were not always called active
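Material: RFP-PRO-GFP reporter HT1080 cells. Dosing: single-point 20 µM compound, 1% DMSO. Controls: DMSO and RFP-L50D-GFP cell wells. Timing: cells overnight before dosing, compound overnight, 37 °C, 5% CO2. Measure: GFP/RFP fluorescence ratio.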
eIF4H inh: inhibitors of RNA binding by human eIF4H | Q15056 | eIF4H fluorescence polarization binding assay | inhibition, % at 35 µM | 290,000 compounds, 0.94% hits;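 active = 50% or more with normal probe brightness, or confirmed in later tests; inconclusive = above 50% with abnormal brightness, or retests that disagree; inactive = below 50% or failed in later tests; about a fifth of its hits are not listed in these tables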;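 also: calls also rest on retests at 20 µM and on dose response follow-up; 0% = protein and probe with vehicle and 100% = probe without protein; strong numbers were not always called active; many hits fall short of the cut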
PABP polyA inh: blocks human PABP binding to poly(A) RNA; fluorescence polarization; inhibition, % at 35 µM; 290,000 compounds, 1% hits;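 active = 50% or more with normal probe brightness, or confirmed in later tests; inconclusive = above 50% with abnormal brightness, or retests that disagree; inactive = below 50% or failed in later tests; about a fifth of its hits are not listed in these tables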;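 also: calls also rest on retests at 20 µM and on dose response follow-up; controls were probe without protein and protein plus probe with vehicle; some compounds called inactive have numbers as strong as hits; many hits fall short of the cut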
Target sequence (P11940 whole entry, looked up): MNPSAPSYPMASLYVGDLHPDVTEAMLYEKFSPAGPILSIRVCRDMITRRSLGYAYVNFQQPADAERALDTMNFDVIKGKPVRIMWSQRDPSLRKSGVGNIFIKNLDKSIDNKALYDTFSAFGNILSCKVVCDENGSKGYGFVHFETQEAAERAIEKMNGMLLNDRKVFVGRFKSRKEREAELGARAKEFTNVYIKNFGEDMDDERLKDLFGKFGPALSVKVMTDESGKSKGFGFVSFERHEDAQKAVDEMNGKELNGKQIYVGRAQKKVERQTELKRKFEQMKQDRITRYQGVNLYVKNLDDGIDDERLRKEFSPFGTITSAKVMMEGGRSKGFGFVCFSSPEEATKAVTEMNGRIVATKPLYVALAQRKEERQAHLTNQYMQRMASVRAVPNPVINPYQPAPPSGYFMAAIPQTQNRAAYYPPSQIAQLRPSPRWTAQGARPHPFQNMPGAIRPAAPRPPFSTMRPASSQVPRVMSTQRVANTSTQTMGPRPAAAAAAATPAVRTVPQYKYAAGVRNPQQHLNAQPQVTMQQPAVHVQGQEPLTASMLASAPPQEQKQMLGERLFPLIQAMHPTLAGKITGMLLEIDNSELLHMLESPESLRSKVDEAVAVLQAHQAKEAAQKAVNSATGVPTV
Rce1 inh: inhibitors of yeast Ras-converting enzyme. Q03530. calls only. 290,000 compounds, 0.27% hits. yeast membranes, quenched prenylated peptide cleavage fluorescence. AID 2563;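 active = fall in fluorescence gain of 50% or more versus controls, with final raw signal at or below 3038400; inconclusive = same 50% fall but final raw signal above 3038400; inactive = fall in fluorescence gain under 50%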;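 also: plate controls were neutral control wells for no effect and wells lacking membranes for full effect; tested at 10 µM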
UUG fidelity: modulators of start codon recognition fidelity in yeast. S. cerevisiae UUG-firefly luciferase reporter, luminescence/redox ratio. activity score, % at 18.7 µM. 350,000 compounds, 0.13% hits. AID 602363;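 active = replicate mean at a twofold rise or more, about +100% in these data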;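 also: firefly luciferase made from a UUG start codon reports start codon fidelity; reporter light over untreated wells divided by growth signal over untreated wells; some hits fall short of that in this replicate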
MT1-MMP act inh RFP: second read-out of MT1-MMP act inh, no call of its own (marks repeat the call); RFP signal change, %; measured here: RFP expression control read;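 0 = vehicle wells; hits needed this value within 50% of zero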
* = called active by the depositor; i = inactive; ? = inconclusive; · = no result given.

Values run as follows: UUG fidelity	CSC inhib	Rce1 inh	MT1-MMP act inh	MT1-MMP act inh RFP	Env fusion inh	PABP polyA inh	eIF4H inh
- CC(=O)Nc1cccc(-c2ccnc3c2CC(C(=O)NCC2CCOCC2)O3)c1 (stereo not given)
 : -8	·	·	-1	-10	-15	·	·
- CCOc1cc(/C=C2\COc3ccccc3C2=O)cc(Br)c1OCC(=O)N(C)C
 : 8	61	i	-17	-32	-63	-4	-9
- COC(=O)c1nnn(-c2nonc2N)c1CSc1nnc(C)s1
 : ·	-7	i	-1	2	21	8	1
- COc1ccc(C(=O)N/C(=C\c2ccccc2)C(=O)NCCCn2ccnc2)cc1
 : -9	4	i	4	3	-2	0	-8
- Cc1cc(C)nc(SCC(=O)c2ccc(F)cc2F)n1
 : -15	-1	i	5	3	12	-9	2
- CC(C)(C)NC(=O)NC(=O)COC(=O)Cn1cnc2ccccc2c1=O
 : ·	-1	i	1	7	9	5	1
- CCn1cc(CN2CCN(Cc3ccc(C)o3)C(CCO)C2)c2ccccc21 (stereo not given)
 : ·	7	i	4	6	-3	0	1
- CC(C)(C)NC(=O)C(OC(=O)c1ccco1)c1ccccc1F (stereo not given)
 : -19	-9	i	2	5	14	-3	-4
- CC(=O)C[C@H](O)CC(=O)[C@H]1OC(=O)[C@H](C)C/C=C\Cc2ccccc21
 : -14	10	·	-5	2	16	·	·
- CCn1nccc1C(=O)Nc1cc(Cl)cc(Cl)c1
 : -11	-1	i	0	1	-84	-1	4
- Cc1cccn2c(=O)c3cc(C#N)c(=NC(=O)c4cccnc4)n(CC4CCCO4)c3nc12 (stereo not given)
 : -11	10	i	-1	-1	·	·	·
- O=[N+]([O-])c1ccc(Nc2cccc(F)c2)nc1
 : -7	19	i	2	-2	-20	-11	-16
- Cc1cc(C)cc(OC(C)C(=O)Nc2ccc(S(=O)(=O)Nc3cc(C)nc(C)n3)cc2)c1 (stereo not given)
 : -14	-2	i	11	-4	·	9	-14
- O=C(c1cccc(NS(=O)(=O)c2ccc(F)cc2)c1)N1CCN(c2ccccc2)CC1
 : 5	15	i	5	-11	2	·	·
- O=C1CC(c2ccc(F)cc2)CC2=C1C(c1ccc([N+](=O)[O-])o1)Nc1ccccc1N2 (stereo not given)
 : 0	11	i	-5	-5	4	9	-12
- CCCOc1cccc(C(=O)Nc2ccc(CN3CCOCC3)cc2)c1
 : -8	·	i	4	-1	-10	13	-4
- COC(=O)c1ccc(CO/N=C/c2ccc(OC)cc2OC)cc1
 : 2	-12	i	4	3	6	4	-2
- CC(C)CNC(=O)COC(=O)c1cncc(Br)c1
 : -7	·	i	7	9	-18	23	1
- O=[N+]([O-])c1ccc(CN2CCN(c3ccc4ccccc4n3)CC2)cc1
 : ·	21	i	5	-9	-2	9	4
- CNc1cc(-c2ccc(O)cc2C)ncn1
 : -19	·	·	1	3	-1	·	·

An excerpt taken from the entries so far, as a working copy:
Values run as follows: UUG fidelity	CSC inhib	Rce1 inh	MT1-MMP act inh	MT1-MMP act inh RFP	Env fusion inh	PABP polyA inh	eIF4H inh
- O=[N+]([O-])c1ccc(CN2CCN(c3ccc4ccccc4n3)CC2)cc1
 : ·	21	i	5	-9	-2	9	4
- CNc1cc(-c2ccc(O)cc2C)ncn1
 : -19	·	·	1	3	-1	·	·

Following part:
Values run as follows: UUG fidelity	CSC inhib	Rce1 inh	MT1-MMP act inh	MT1-MMP act inh RFP	Env fusion inh	PABP polyA inh	eIF4H inh
- Cc1ccnn1CCC(=O)O
 : -19	-13	i	-1	1	-57	-7	-1
- O=C(CC(=O)N/N=C/c1cccs1)NCc1ccccc1
 : ·	-5	i	-4	-1	-13	9	0
- CCCCc1nc2sc3c(=O)n(N)cnc3c2c2c1CCC2
 : -11	-12	i	0	-2	3	-6	-2
- CCCCCN1CN(S(=O)(=O)c2cccs2)c2nc3ccccc3nc21
 : ·	-6	i	1	-6	-2	9	-7
- O=C(Nc1ccnc(-c2cccnc2)n1)c1cccc(Cl)c1Cl
 : 6	44	i	-1	-4	-31	0	-5
- CCN(CC)N=Nc1ccc(S(=O)(=O)N2CCSC2C(=O)O)cc1 (stereo not given)
 : ·	5	i	4	3	-9	2	-4
- Cc1nc(N2CCN(C(=O)CCC(=O)O)CC2)c2c(C)c(C)sc2n1
 : 4	-14	i	1	0	·	1	-1
- Cc1cccc(NC(=O)CNC(=O)c2cccc(S(=O)(=O)NCc3cccs3)c2)c1C
 : 1	0	·	7	-4	·	·	·
- NNC(=O)/C(=C/c1cccs1)NC(=O)c1ccccc1Cl
 : -15	-14	i	2	2	0	2	-4
- O=C(NN=C1CCCCCC1)c1cc(-c2ccccc2)nc2ccccc12
 : -18	3	i	5	9	·	-2	4

Single records (already shown).
CC(C)(C)NC(=O)NC(=O)COC(=O)Cn1cnc2ccccc2c1=O as listed: UUG fidelity = ·; CSC inhib = -1; Rce1 inh = i; MT1-MMP act inh = 1; MT1-MMP act inh RFP = 7; Env fusion inh = 9; PABP polyA inh = 5; eIF4H inh = 1
COc1ccc(C(=O)N/C(=C\c2ccccc2)C(=O)NCCCn2ccnc2)cc1 as listed: UUG fidelity = -9; CSC inhib = 4; Rce1 inh = i; MT1-MMP act inh = 4; MT1-MMP act inh RFP = 3; Env fusion inh = -2; PABP polyA inh = 0; eIF4H inh = -8

Next part
Values run as follows: UUG fidelity	CSC inhib	Rce1 inh	MT1-MMP act inh	MT1-MMP act inh RFP	Env fusion inh	PABP polyA inh	eIF4H inh
- CCc1nnc(NC(=O)CSc2nnc(COc3ccccc3)n2-c2ccc(C)cc2)s1
 : -9	-1	i	21	5	-95	4	-7
- COc1ccc(-n2ncc3c2CC(C)(C)CC3NC(=O)CSc2ccccn2)cc1 (stereo not given)
 : -9	-2	i	0	-11	10	3	3
- CC1CCN(C(=O)COc2ccc3ccccc3c2Br)CC1
 : -2	18	i	-4	-1	-16	-2	-9
- O=C1CCCN1CCC(=O)N1CCCC(Nc2ccc(F)cc2)C1 (stereo not given)
 : -4	-5	i	-1	3	·	-16	-6
- COc1ccc(OCC(O)CNC(=O)/C=C/c2cccc([N+](=O)[O-])c2)cc1 (stereo not given)
 : ·	-15	i	-1	-3	9	-4	5
- COc1ccccc1-c1cnc(C(O)c2c(C)cc(C)cc2C)[nH]1 (stereo not given)
 : -18	·	·	5	-4	5	·	·
- CCOc1ccc(OCCC(=O)N2CCN(S(=O)(=O)c3cccc(F)c3)CC2)cc1
 : ·	19	i	-1	0	28	·	·
- CC(=O)c1nn(-c2ccccc2)cc1C(=O)c1cccc(Br)c1
 : -13	-11	i	-4	-7	-6	-6	6
- Cc1ccc(S(=O)(=O)N2CCN(C(=O)CSc3ncc(C(F)(F)F)cc3Cl)CC2)cc1
 : -1	-1	i	-6	-10	·	-9	-4
- Cc1cc(=O)oc2cc(OCC(=O)NC(Cc3c[nH]c4ccc(O)cc34)C(=O)O)c(Cl)cc12 (stereo not given)
 : -16	-6	i	5	6	·	37	34
- CCOc1ccc(NC(=O)Nc2cc(C(C)C)ccc2C)cc1
 : -5	·	i	4	-3	3	2	4
- COc1cc(OC)c2cc(C(=O)N[C@H](C(=O)N3CCC[C@H]3C(=O)O)C(C)C)n(C)c2c1
 : -15	2	i	4	3	·	10	-5
- CC(=O)NS(=O)(=O)c1ccc(NC(=O)C(C)NS(=O)(=O)/C=C/c2ccccc2)cc1 (stereo not given)
 : -10	6	·	-3	4	-3	·	·
- CC(=O)c1ccc(NC(=S)NN2C(C)CCCC2C)cc1 (stereo not given)
 : ·	-19	i	3	0	15	4	-1
- COc1cc(OC)c2c(C)cc(=O)oc2c1C(CCN1CCOCC1)c1ccc2c(c1)OCO2 (stereo not given)
 : -17	1	i	8	4	-13	-7	-8
- CC1CN(c2ccc(NC(=S)NNCCC#N)cc2)CC(C)O1 (stereo not given)
 : -28	-2	i	1	1	5	10	-11
- CCOc1ccccc1CNS(=O)(=O)c1ccc(-c2cnc(C3CC3)o2)cc1
 : -2	·	i	-3	-20	-18	1	-8
- CCN(CC)S(=O)(=O)c1ccc(OC)c(NC(=O)C2CC(=O)N(c3ccc4c(c3)OCCO4)C2)c1 (stereo not given)
 : -8	-12	i	-2	-2	·	7	4
- C/C(=N\NC(=O)c1ccc(Cl)cc1)c1cccnc1
 : -6	4	i	-3	0	-21	12	-10
- CCC(Oc1ccccc1)C(=O)Nc1nnc(S(=O)(=O)N2CCCC2)s1 (stereo not given)
 : 2	1	i	-1	4	7	0	-2
- O=C(NCc1ccco1)c1ccc(Cn2c(=S)[nH]c3ccccc3c2=O)cc1
 : -21	0	i	-6	-5	-6	3	-12
- COC(=O)c1cc(NS(=O)(=O)c2ccc(Cl)c(N3C(=O)c4ccc(C(=O)O)cc4C3=O)c2)cc(C(=O)OC)c1
 : ·	-11	i	-3	5	2	7	-9
- COc1ccc(N(CC(=O)N2CCN(C)CC2)S(C)(=O)=O)cc1OC
 : -17	-2	i	-2	10	4	9	1
- O=C(/C=C\Nc1ccc(Br)cc1)c1cccnc1
 : -27	24	i	2	0	·	6	-5
- Cc1ccc(S(=O)(=O)NCCC(=O)NC2CCN(Cc3ccccc3)CC2)cc1
 : -18	-4	i	6	-5	-10	·	·
- CCn1c(=O)cc(OCC(=O)NC2CC2)c2ccccc21
 : -15	2	i	1	8	-14	·	·
- CC(=O)N1c2ccc(S(=O)(=O)N3CCCCC3)cc2CC1C (stereo not given)
 : -9	-1	i	-1	3	-2	37	-8
- CCN(CC)c1nc(N)n(CCSC(=S)N(C)C)c(=O)n1
 : ·	-12	i	-1	1	-6	7	17
- O=C1c2ccccc2C(O)(Cc2ccccc2)N1C1CCCCC1 (stereo not given)
 : ·	·	i	·	·	-15	10	-8
- COc1ccc(CN(C)C(=O)c2cc(-c3ccccc3)nc3ccc(C)cc23)c(OC)c1
 : 13	·	·	-5	-4	15	·	·
- COc1ccc(C(=O)CN2C(=O)NC3(CCCc4ccccc43)C2=O)c(OC)c1 (stereo not given)
 : -8	-10	i	0	2	·	-3	-3
- O=C(Nc1ccc(Cl)cc1)Nc1nnc(/C=C/c2ccccc2)s1
 : -10	22	i	4	-11	7	6	6
- CCN(CC)CCNc1ncnc2c1sc1nc(N3CCOCC3)c3c(c12)CC(C)(C)SC3
 : 8	?	·	-4	-10	9	-12	-4
- Cc1cc(C(=O)N/N=C/c2c(C)n(C)c3ccccc23)n[nH]1
 : -24	-5	i	7	7	-8	-7	6

Part of the list above in order of formula weight, falling.
Values run as follows: UUG fidelity	CSC inhib	Rce1 inh	MT1-MMP act inh	MT1-MMP act inh RFP	Env fusion inh	PABP polyA inh	eIF4H inh
- COc1ccc(C(=O)CN2C(=O)NC3(CCCc4ccccc43)C2=O)c(OC)c1 (stereo not given)
 : -8	-10	i	0	2	·	-3	-3
- O=C(Nc1ccc(Cl)cc1)Nc1nnc(/C=C/c2ccccc2)s1
 : -10	22	i	4	-11	7	6	6
- O=C1c2ccccc2C(O)(Cc2ccccc2)N1C1CCCCC1 (stereo not given)
 : ·	·	i	·	·	-15	10	-8

High-throughput results: PubChem BioAssay, several laboratories
